WNV NS2B-NS3 inh: inhibitors of WNV NS2B-NS3 protease, primary screen, biochemical, fluorogenic substrate | AID 577, 2007 | fluorogenic substrate Ex360/Em465; active compounds read low | z-score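 (tested at a level between 10 and 100 µM)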 | Genome polyprotein (West Nile virus), P06935 | hit rate 0.18% among 65,000;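 active = z-score at -3 or under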;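 also: score is relative to mean and spread of the compound wells of a plate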
Target sequence (P06935 1371-1501 limits assumed): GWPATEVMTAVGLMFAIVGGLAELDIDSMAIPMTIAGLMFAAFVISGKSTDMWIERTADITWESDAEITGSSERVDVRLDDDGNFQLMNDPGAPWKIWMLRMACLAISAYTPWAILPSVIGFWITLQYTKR
Target sequence (P06935 1502-1679 limits assumed): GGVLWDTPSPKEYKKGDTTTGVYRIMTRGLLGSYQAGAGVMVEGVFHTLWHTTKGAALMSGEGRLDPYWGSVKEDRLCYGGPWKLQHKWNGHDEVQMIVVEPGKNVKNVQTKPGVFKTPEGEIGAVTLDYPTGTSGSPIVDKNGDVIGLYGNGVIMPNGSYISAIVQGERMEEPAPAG
MT1-MMP promoter: inhibitors of MT1-MMP promoter transcription, cell-based, luciferase reporter, luminescence (AID 618). hit rate 0.62% among 87,000. calls from a first round at 10 µM; hits with a dose series show EC50 in µM. MT1-MMP promoter luciferase reporter cells, luminescence;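 active = over half of the reporter light lost at 10 µM or EC50 under 50 µM; inactive = the rest and hits that failed the dose series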;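 also: actives suppress MT1-MMP promoter-driven transcription so potencies describe inhibitors; HT1080 fibrosarcoma cells; overnight exposure; toxic or luciferase-blocking compounds were not removed from the actives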
Hsc70: Hsc70 inhibitors, probe displacement, primary screen, biochemical, fluorescence polarization (AID 568) | Heat shock cognate 71 kDa protein (Homo sapiens) | Hsc70 fluorescence polarization, probe displacement; higher % means a stronger effect; strong numbers were not always called active | one-dose displacement, % at 20 µM; IC50 in µM for titrated hits | 83,000 tested, under 10 active;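 active = displacement above 50% without optical interference and an IC50 on retest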;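 also: ATPase domain with a fluorescein-tagged ATP probe; 0% = vehicle and 100% = excess ADP; read after one hour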
Numbers without * were called inactive; i = inactive; . = no result given; + = active, no number; & = joins results of further samples.

SMILES	WNV NS2B-NS3 inh	MT1-MMP promoter	Hsc70
CCCCN(CCCC)c1cc(C)nc(-c2ccccc2O)n1	.	i	-4.2%
O=C(c1ccco1)N1CCN(S(=O)(=O)c2ccc(Br)s2)CC1	-0.46	i	-17%
O=C(CCNS(=O)(=O)c1cccs1)Nc1ccccc1F	-0.0064	i	-13%
COCCNCCOCCOc1cccc(OC)c1	-0.1	i	-2.6%
CC1(C)O[C@@H]2C[C@H]3[C@@H]4CCC5=CC(=O)C=C[C@]5(C)[C@@]4(F)[C@@H](O)C[C@]3(C)[C@]2(C(=O)CO)O1	0.2	i	8.7%
Cc1cc(=O)[nH]c(COc2ccccc2)n1	0.04	i	1.2%
c1ccc(Cn2nnc3c(N4CCc5ccccc54)ncnc32)cc1	-0.98	i	-7.1%
N#Cc1cn(CCOc2ccccc2F)c2ccccc12	-1.8	i	-6.1%
CCN(CC)c1ccc(SS(=O)(=O)O)cc1	.	i	-5.3%&-3.0%
COCc1cc(=O)n2[nH]c(SCc3ccccc3)nc2n1	.	i	-3.4%
Cc1cc(=O)c2cc(Cl)ccc2[nH]1	-0.52	i	8.9%
COc1ccc(CNc2nc(SCC(=O)NCc3ccco3)nc3ccccc23)cc1	-0.83	i	-3.2%
COCCNC(=O)C(c1ccc(C)o1)N(Cc1ccccc1)C(=O)Cn1nnc2ccccc21 (stereo unspecified)	-1.1	i	2.0%
Cc1ccc2nc(NC(=O)C3CCCN(S(=O)(=O)c4cccc5nonc45)C3)sc2c1 (stereo unspecified)	-0.05	i	-25%
Cc1cc(C)nc(SC(C)C(=O)O)n1 (stereo unspecified)	0.82	i	8.2%
CC(CS(=O)(=O)c1cccc2cccnc12)N1CCCCC1 (stereo unspecified)	2.8	i	6.9%
CC(=O)Nc1ccc(S(=O)(=O)/N=C2\SCCN2S(=O)(=O)c2ccc(NC(C)=O)cc2)cc1	-0.7	i	-0.4%
O=C(O)CC(NCc1ccco1)C(=O)OCCc1ccccc1 (stereo unspecified)	-0.56	i	-3.6%
Nc1c(C(=O)c2ccccc2)oc2ccc(Br)cc12	-0.05	i	0.9%
COc1cc(-c2nnc3sc(-c4ccccn4)nn23)cc(OC)c1OC	2	i	2.5%
CC(=O)c1ccc(NC(=O)CSC(C)C)cc1	-0.05	i	-2.4%
CCCCn1nnnc1SCC(=O)Nc1ccc(C)cc1	0.15	i	2.7%
CC(=O)OC(/C(O)=C(\C#N)c1nc2ccccc2[nH]1)c1ccccc1 (stereo unspecified)	0.08	i	-2.2%
CCCC(C)NC(=O)c1nc(-c2ccccc2)n(-c2ccccc2)n1 (stereo unspecified)	.	i	-0.2%
O=C(O)C1Cc2ccccc2CN1C(=O)c1ccccc1 (stereo unspecified)	-0.11	i	0.2%
CCOC(=O)c1ccc(NC(=O)CCc2nc(-c3ccccc3)no2)cc1	-0.45	i	3.8%
Cn1ncc(Br)c1C(=O)Nc1ccc(F)cc1F	.	i	4.6%
Cc1ccc(C(c2sc3nc(C)nn3c2O)N2CCN(c3ccc(F)cc3)CC2)cc1 (stereo unspecified)	-0.85	i	-0.1%
COc1ccccc1NC(=O)CSc1nc2nc(C)cc(C)c2c(=O)[nH]1	-0.91	i	0.8%
CCCCN(C)CCCNC(=O)c1ccc(N2CCCC2=O)cc1	-1.2	i	-1.8%
COc1ccccc1C(=O)Nc1cc(Cl)ccc1O	-0.27	i	2.1%
CC1CCCC(C)N1C(=O)Cc1ccccc1 (stereo unspecified)	.	i	3.5%
Cc1cc(OCC(O)CN2CCN(CCO)CC2)ccc1C(C)C (stereo unspecified)	-0.8	i	-2.7%
COc1ccc(N/C(C)=C2/C(=O)C(=O)N(CCO)C2c2ccc(Br)cc2)cc1 (stereo unspecified)	-1.2	i	-6.3%
Cc1cc(C)cc(CSc2nnc(C)c(=O)[nH]2)c1	-0.57	i	-0.5%
COCCNC(=O)C1CC(=O)N(C2CCCC2)C1 (stereo unspecified)	-0.41	i	4.1%
COC(=O)CSc1nnc([C@H](CC(C)C)NC(=O)OC(C)(C)C)o1	0.19	i	1.4%
COc1ccc(CCn2c(C)cc(C(=O)CSc3nnnn3-c3ccccc3)c2C)cc1OC	0.31	i	-2.9%
Cc1ccccc1-c1nc(S(=O)(=O)c2ccc(Br)cc2)c(NCc2cccnc2)o1	.	i	-6.2%
CCCCNC(=O)Nc1cc(C)on1	.	i	1.6%

Exported as a markdown table: part of the list above.
| Molecule | WNV NS2B-NS3 inh | MT1-MMP promoter | Hsc70 |
| --- | --- | --- | --- |
| O=C(O)C1Cc2ccccc2CN1C(=O)c1ccccc1 (stereo unspecified) | -0.11 | i | 0.2% |
| CC1CCCC(C)N1C(=O)Cc1ccccc1 (stereo unspecified) | . | i | 3.5% |

The list continues.
SMILES	WNV NS2B-NS3 inh	MT1-MMP promoter	Hsc70
COc1ccc(-c2nnc(SCCOc3cccc(C)c3)n2N)cc1	0.24	i	3.9%
CN(Cc1ccccc1)C(=O)Cn1cccc1C(=O)c1ccccc1	.	i	3.2%
Cc1noc(C)c1COC(=O)c1ccc(-c2nc3ccccc3s2)s1	0.61	i	96%
COC(=O)c1ccccc1NC(=O)CN1C(=O)CSC1=O	0.57	i	-2.1%
Cc1nnc(Nc2ccc3c(c2)OCO3)c2ccccc12	0.14	i	1.2%
CCN(CC)CCCNC(=O)c1c(O)c2c([nH]c1=O)CCCC2	0.94	i	2.2%
CCc1ccc2c(CN3CCc4ccccc43)cc(=O)oc2c1	0.04	i	-0.8%
c1ccc(-c2cn3c4c(sc3n2)CCCC4)cc1	1.1	+	-2.0%
c1ccc(-c2ccn3nnnc3n2)cc1	.	i	-0.4%
N#CC12CCCCC1CC1CCCCC1(C#N)N2Cc1cccnc1 (stereo unspecified)	-0.53	i	-5.5%
COc1ccc(Cl)cc1C(=O)CSc1nnnn1C1CCCCC1	.	i	4.4%
CCOc1ccc(-c2nnc(-c3snc(-c4ccc(F)cc4)c3N=CN(C)C)o2)cc1	0.34	i	-0.7%
CCCCn1c(SCC(=O)c2cc(OC)ccc2OC)nc2cc(S(N)(=O)=O)ccc21	-0.52	i	-1.3%
COc1ccc(NC(=O)c2ccc3c(c2)C(=O)N(Cc2cccnc2)C3=O)c(OC)c1	-0.8	i	0.5%
c1cc(C(c2nnnn2C2CCCCC2)N2CCN3CCCC3C2)ccn1 (stereo unspecified)	0.5	i	4.7%
CNCc1cc2ccc(C)cc2[nH]c1=O	-0.21	i	1.9%
COc1cc(-c2nnc3sc(C4CCCCC4)nn23)cc(OC)c1OC	-0.73	i	0.6%
O=C(O)c1ccc(S(=O)(=O)NC2CCCCC2)cc1	0.48	i	4.0%
O=C(Nc1ccc(N2CCOCC2)c(Cl)c1)c1c(F)c(F)c(F)c(F)c1F	0.75	i	2.1%
COc1ccccc1-c1ccc(NC2CCCC2)nn1	.	i	-0.6%

Laid out differently: entries from further up.
COc1ccc(Cl)cc1C(=O)CSc1nnnn1C1CCCCC1
- WNV NS2B-NS3 inh = .
- MT1-MMP promoter = i
- Hsc70 = 4.4%

CN(Cc1ccccc1)C(=O)Cn1cccc1C(=O)c1ccccc1
- WNV NS2B-NS3 inh = .
- MT1-MMP promoter = i
- Hsc70 = 3.2%

CNCc1cc2ccc(C)cc2[nH]c1=O
- WNV NS2B-NS3 inh = -0.21
- MT1-MMP promoter = i
- Hsc70 = 1.9%

CCN(CC)CCCNC(=O)c1c(O)c2c([nH]c1=O)CCCC2
- WNV NS2B-NS3 inh = 0.94
- MT1-MMP promoter = i
- Hsc70 = 2.2%

Additional structures follow:
SMILES	WNV NS2B-NS3 inh	MT1-MMP promoter	Hsc70
O=c1oc2cc(O)ccc2cc1-c1ccc(F)cc1	6.3	i	-12%
Cc1ccc(-n2nnnc2SCC(=O)N2CCCCC2)cc1	.	i	-0.8%
O=C(CCN1CCOCC1)Nc1ccccc1	.	i	1.3%
COc1ccc(NC(=O)CSc2nc3ccccc3c(=O)n2CCNC(C)=O)cc1	-1.1	i	1.0%
Cc1ccc(-c2cc(=O)[nH]c3ccccc23)cc1	.	i	-6.1%
NC(=O)CCc1c[nH]c2ccccc12	-0.56	i	-4.7%
CN(C)c1nc(SCc2ccccc2)nc(N2CCOCC2)n1	.	i	3.2%
CC1=C(C)[N+](=O)C2(O)CCCCC2(C)N1[O-] (stereo unspecified)	.	i	2.6%
CC1(C)CC(=O)C=C(NCC(=O)O)C1	-0.74	i	-1.7%
Cc1csc(Sc2ccc([N+](=O)[O-])cc2C(=O)OCC(=O)NC2CCCC(C)C2C)n1 (stereo unspecified)	.	i	-2.4%
Cc1ccccc1NC(=O)Nc1cccs1	0.18	i	-1.1%
C=CCn1c(SCCCCCC)nc(O)cc1=O	0.09	i	-2.7%
CCCCN(C)C(=O)c1coc(=O)c2ccccc12	-0.62	i	-7.3%
CC(C)Cn1c(-c2ccco2)n[nH]c1=S	.	i	5.1%
O=S1(=O)CCN2C=C(Br)C=C(Br)C2=N1	-0.25	i	0.1%
O=C1C2ON(c3ccccc3)C(c3ccncc3)C2C(=O)N1c1ccc(Br)cc1 (stereo unspecified)	0.16	i	0.1%
COc1cc2c(cc1OC)C(c1ccncc1)CC(=O)N2 (stereo unspecified)	0.85	i	7.1%
CC(C)CNC(=O)C1CC(=O)OC12CCCCC2 (stereo unspecified)	0.99	i	-6.5%
Cc1ccc(-c2cc(C(F)F)n3ncc(C(=O)NCc4ccco4)c3n2)cc1	-2.4	i	1.1%
COc1ccc(CCN2C(=O)CC(N3CCN(S(=O)(=O)c4ccccc4)CC3)C2=O)cc1 (stereo unspecified)	-1	i	0.6%
Cc1cc(/C=N/n2cnnc2)c(C)n1-c1ccc2c(c1)OCO2	0.21	i	0.0%
COC(=O)c1cc(NS(=O)(=O)c2ccc(OC)c(OC)c2)ccc1Cl	-0.73	i	-1.3%
CC(C)n1c(NCc2ccc(N(C)C)cc2)nc2ccccc21	0.27	i	0.8%
Cc1onc(-c2ccccc2Cl)c1C(=O)Nc1ccc(-n2nncc2C(C)(C)C)cc1	-1.4	i	-2.3%
COC(=O)c1ccc(Cl)c(NC(=O)NC2CCCCC2)c1	-0.68	i	0.1%
O=C(Nc1ccc(-c2noc(CCc3ccccc3)n2)cc1)c1ccco1	0.26	i	-0.9%
CC(C)CN(CC(C)C)S(=O)(=O)N1CCC(C(=O)NCc2cccs2)CC1	1.5	i	3.8%
Cn1cccc1Cc1nnc(SCC(=O)N2CCCc3ccccc32)n1-c1ccc(F)cc1	1.5	i	2.0%
CCC(C)C(NCc1cccc(C)c1)C(=O)O (stereo unspecified)	-0.93	i	-0.5%
O=S(=O)(c1cccc2cccnc12)N1CCN(c2ccccc2)CC1	.	i	-1.2%
O=C1C(c2ccc(F)cc2)N(Cc2ccc3c(c2)OCO3)C(=O)CN1C1CCCCCC1 (stereo unspecified)	.	i	-1.3%
CC(C)OC(=O)CN1CCN(C2c3ccccc3-c3ccccc32)CC1	-0.12	i	1.9%
CC1CCCN(c2nc3ccccc3nc2C(C#N)S(=O)(=O)c2ccccc2)C1 (stereo unspecified)	0.05	i	-18%
CC1=NC(C)(C)Cc2ccccc21	.	i	-5.1%
Cc1onc(-c2ccccc2)c1C(=O)Nc1nc(-c2cc(F)ccc2F)cs1	-1.5	i	-2.3%
CNC(=O)/C=C1\NC(C)(C)Cc2c1ccc1ccccc21	.	i	-1.2%
COc1ccc(CCNC(=O)CN2CCOc3ccccc32)cc1OC	-0.45	i	4.8%
O=C(CSc1ncnc2c1oc1ccccc12)Nc1cccc(C(F)(F)F)c1	0.08	i	4.4%
COc1ccc(OCC(O)Cn2c(Nc3cccc(C)c3)nc3c2c(=O)n(C)c(=O)n3C)cc1 (stereo unspecified)	-0.33	i	-2.9%
Cn1c(=O)[nH]c(=O)c2c1nc(Br)n2CCC(=O)c1ccccc1	-0.11	i	-0.2%
C#CCOC(=O)c1ccccc1C(=O)OCC#C	-0.99	i	-1.6%
COc1cc(C2c3c(-c4cc(Cl)c(C)cc4O)n[nH]c3C(=O)N2Cc2cccnc2)ccc1O (stereo unspecified)	-1.9	i	-3.1%
O=C(COc1ccc2c3c(c(=O)oc2c1)CCC3)c1ccc2c(c1)OCO2	0.35	i	2.9%
CCOC(=O)C1CCN(C(=O)c2ccccc2N(C)S(C)(=O)=O)CC1	-0.59	i	3.1%
O=S(=O)(NCc1ccccc1)c1ccc(S(=O)(=O)N2CCCCC2)cc1	-0.3	i	1.3%
Cc1ccc(N(CC(=O)Nc2ccc(F)cc2)S(=O)(=O)N2CCCC2)cc1	-2.6	i	1.0%
C/C=C(\C)c1nnc(NC(=O)C(C)C)s1	-0.91	i	-10%
COc1ccc(C)cc1NC(=O)CSc1nnc(-c2ccco2)n1N	.	i	-2.0%
O=C(O)CCC(=O)N1CCc2cc(S(=O)(=O)N3CCN(c4ccc(F)cc4)CC3)ccc21	-0.3	i	-0.9%
COc1ccc(NS(=O)(=O)c2cc(C)ccc2NC(=O)c2cc(C)oc2C)cc1	-0.05	+	-7.4%

An excerpt from above, limited to MT1-MMP promoter:
Compound | MT1-MMP promoter
O=S(=O)(NCc1ccccc1)c1ccc(S(=O)(=O)N2CCCCC2)cc1 | i
Cc1ccc(N(CC(=O)Nc2ccc(F)cc2)S(=O)(=O)N2CCCC2)cc1 | i
C/C=C(\C)c1nnc(NC(=O)C(C)C)s1 | i

High-throughput results (PubChem)

Not all compounds are listed; rates above refer to the full screens.
